Source: PubChem BioAssay
PINK1 modulator = A Quantitative High throughput Screen to Identify Chemical Modulators of PINK1 Expression; AID 624263, 2012; hit rate 0.2% among 410,000; PINK1 immunofluorescence, high-content cytometry, 24 h; Potency, µM (doses to about 76.6 µM), for the others: top-dose activation (PINK1 increase), most hits filed as activators; active = well fitted activation curve with a large enough effect; inconclusive = small, poorly fitted or top-dose-only effect; inactive = flat fitted curve, though single readings scatter; cell line not stated here;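 note: potency is the fitted concentration of half-maximal effect; % of control where 0% means no effect; nearly all actives have a fitted effect of over 65% in size; a mitochondrial uncoupler was the plate control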
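Stable cell line treated 24 h with compounds at 5 concentrations (CCCP controls), then fixed and immunostained for PINK1 plus nuclear and cell stains; PINK1 immunofluorescence quantified by laser-scanning microplate cytometry.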
gsp antag = qHTS for Antagonists of gsp, the Etiologic Mutation Responsible for Fibrous Dysplasia/McCune-Albright Syndrome: qHTS; hit rate 0.4% among 340,000; Potency, µM (highest dose often 76.9 µM), for the others: at the top dose activity change, negative = inhibition, hits mostly inhibitors; gsp-mutant cells, cAMP HTRF, 30 min; control for the full effect not named in the record; active = falling curve of any shape with a large fitted effect; inconclusive = falling curve, mostly with a smaller effect; inactive = flat or rising curve; cell line not stated here;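 note: intracellular cAMP measured with PDE inhibitor Ro 20-1724 present during compound exposure; potency is the fitted concentration of half-maximal effect; % is set by controls: 0 for no effect and ±100 for the full control effect; nearly all actives have a fitted effect of over 65% in size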
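HTRF cAMP measurement after 30 min RT detection following 30 min, 37C compound treatment alongside […] (added as 300 uM solution) in G418-selected cells seeded at 2000/well and grown 16–24 h.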
Sfp inh = qHTS Assay for Inhibitors of Bacillus subtilis Sfp phosphopantetheinyl transferase (PPTase); Biochemical Sfp PPTase activity, qHTS; hit rate 3.5% among 310,000; Potency, µM, inactives show max response, negative = inhibition, usual class: inhibitors; active = well fitted inhibition curve with a large enough effect; inconclusive = small, poorly fitted or top-dose-only effect, or another doubt; inactive = no such curve, though single readings can be large or run the other way;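 note: the enzyme is Sfp with the accession as filed and its product quenches rhodamine fluorescence; potency is the fitted concentration of half-maximal effect; 0% = enzyme reaction without inhibitor and -100% = no enzyme wells; top concentration of the series not given in the record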
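Step 1, compound plus 15 nM Sfp-PPTase, 15 min, room temperature. Step 2, add rhodamine-CoA (5 uM) and BHQ-2-YbbR (12.5 uM). Step 3, read 525/598 nm fluorescence at 0 and 30 min.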
D2 agonist = Beta-Arrestin HTS for Positive Allosteric Modulators of the Human D2 Dopamine Receptor: Agonists; D(2) dopamine receptor (Homo sapiens), P14416; DiscoveRx PathHunter D2 beta-arrestin, luminescence, 90 min; 100% = 57 uM dopamine signal; activation, % (no concentration beside the values); hit rate 0.084% among 360,000; AID 624465, 2012; in the data active = activation above about 40%; inconclusive = about 15% to 40%; inactive = below about 15%; note: compound concentration not given in the record; the text of the record calls up to 30% inactive
Target sequence (P14416 whole entry, looked up): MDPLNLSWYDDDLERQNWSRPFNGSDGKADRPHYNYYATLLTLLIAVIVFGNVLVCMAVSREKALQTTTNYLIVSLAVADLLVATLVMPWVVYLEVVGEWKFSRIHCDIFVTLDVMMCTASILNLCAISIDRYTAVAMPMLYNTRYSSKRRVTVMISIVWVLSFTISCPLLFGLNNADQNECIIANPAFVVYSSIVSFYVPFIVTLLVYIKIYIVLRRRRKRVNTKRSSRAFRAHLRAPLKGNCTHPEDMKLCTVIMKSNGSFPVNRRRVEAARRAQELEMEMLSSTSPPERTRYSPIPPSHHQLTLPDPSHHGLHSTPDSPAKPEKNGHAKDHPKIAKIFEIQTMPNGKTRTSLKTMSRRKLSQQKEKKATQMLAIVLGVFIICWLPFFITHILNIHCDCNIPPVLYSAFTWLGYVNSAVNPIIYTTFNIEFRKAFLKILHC
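DiscoveRx PathHunter D2 beta-arrestin cells (2,100/well) attached overnight, then compound-stimulated 90 min at 37 C in HBSS/10 mM HEPES/0.1% Tween-20 buffer; beta-galactosidase complementation read by luminescence after 1 h at ambient temperature. Dopamine 57 uM final (EC100) as control.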
gsp agonist = qHTS for Agonist of gsp, the Etiologic Mutation Responsible for Fibrous Dysplasia/McCune-Albright Syndrome: qHTS. Potency, µM (series often up to 76.9 µM), without a hit: top-dose activation (cAMP increase), hits mostly activators. hit rate 0.13% among 340,000. gsp mutant cells, cAMP HTRF, 30 min; control for the full effect not named in the record; active = well fitted activation curve with a large enough effect; inconclusive = small, poorly fitted or top-dose-only effect, or another doubt; inactive = no such curve, though single readings can be large or run the other way; cell line not stated here;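 note: phosphodiesterase inhibitor Ro 20-1724 added with compounds to block cAMP breakdown; potency is the fitted concentration of half-maximal effect; nearly all actives have a fitted effect of over 60% in size; about a fifth of the inactives were tested at one dose only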
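Cells in DMEM/10% FBS with G418 were pretreated with compounds in DMSO plus […] (300 uM stock) for 30 min at 37C. cAMP was measured by HTRF (cAMP-d2 plus anti-cAMP antibody-K) after 30 min at room temperature.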
ClpP mod = qHTS Assay for Activators of ClpP | purified B. subtilis ClpP, FRET peptide cleavage, 20 min | hit rate 1.9% among 340,000 | Potency, µM (series often up to 57.5 µM), for inactives: at the top dose activity change, negative = active | ATP-dependent Clp protease proteolytic subunit (Bacillus subtilis (strain 168)), P80244; active = well fitted falling curve with a large enough effect; inconclusive = small, poorly fitted or top-dose-only effect; inactive = no such curve, though single readings can be large or run the other way; note: potency is the fitted concentration of half-maximal effect; the source files actives as falling curves though it sought activators and does not explain the sign; nearly all actives have a fitted effect of over 65% in size; many hits overshoot -100%
Target sequence (P80244 whole entry, looked up): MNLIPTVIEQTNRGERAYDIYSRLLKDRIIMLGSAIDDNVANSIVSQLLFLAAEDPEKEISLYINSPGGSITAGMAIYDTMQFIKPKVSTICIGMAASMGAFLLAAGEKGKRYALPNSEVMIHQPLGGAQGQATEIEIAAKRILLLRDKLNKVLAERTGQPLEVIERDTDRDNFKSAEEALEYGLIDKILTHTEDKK
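FRET quenching reversal measured ClpP activation: 10 microg/mL B. subtilis ClpP at pH 8 with the FRET-FV decapeptide, read at 430 nm after 320 nm excitation. The 20-min minus 0-min signal was scaled between DMSO/no-enzyme wells and ADEP (5.8 microM final).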
Menin-MLL FL inh = qHTS Assay for Inhibitors Targeting the Menin-MLL Interaction in MLL Related Leukemias: Competition With Fluorescein Labeled MLL-derived Peptide. Fluorescence polarization, fluorescein-MLL peptide displacement from menin. FP activity change, % at 61.4 µM. 290,000 tested, under 10 active; inconclusive = falling polarisation curve, or a change in total fluorescence; inactive = total fluorescence flat and polarisation flat or rising; no compound was filed as active; the % refers to the polarisation; negative = inhibition;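 note: % of control where 0% means no effect; inhibitors lower the polarisation; unlabelled MLL peptide was the positive control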
An asterisk follows results filed as active; u = inconclusive; x = not tested or not shown; & = joins results of further samples; [ ] = dose if it differs, or a comment.

Structure	gsp agonist	D2 agonist	ClpP mod	gsp antag	Sfp inh	Menin-MLL FL inh	PINK1 modulator
NC(=O)C1=C[C@@H](c2csc3ccccc23)C[C@@H](OCc2ccc(CO)cc2)O1	-76%[inhibitor]	0.7	-6.9%	-24%	-27%	9.5	-0.5%
COc1ccc(C(=O)N2CCC[C@@]3(CCN(C(=O)NC(C)C)C3)C2)cc1	x	x	x	x	17%	-0.2	-1.0%
CN1CCN(C(=O)c2cc(COc3ccc(F)cc3Cl)on2)CC1c1ccccc1 (stereo not drawn)	0%	-2.2	x	6%	-18%	-1.8	2.7%
Cc1ccc(C)c(-n2cc(CNC(C)Cn3cncn3)c(-c3ccccc3)n2)c1 (stereo not drawn)	1%[15.4 µM]	-2.7	x	2%	11%	3.5	3.2%
Cc1cccc(OCCC(=O)Nc2ccc(N3CCOCC3)cc2N2CCOCC2)c1	3%	-2.1	0.3%	-18%	x	x	0.0%
COC(=O)CN1C(=O)N/C(=C/c2cc(Cl)c(OC)c(OC)c2)C1=O	0%[15.4 µM]	-0.6	0.0%	-1%	9%	-4.4	4.0%
O=C(O)c1ccccc1C(=O)N1CCN(S(=O)(=O)c2cccc(C(F)(F)F)c2)CC1	-22%	3.3	x	9%	x	x	1.2%
Cc1ncc([N+](=O)[O-])n1CCOC(=O)c1ccccc1	-19%	-3.6	2.1%	0%	8%	8.7	1.7%
O=C(Nc1nc(-c2ccccn2)cs1)C1COc2ccccc2O1 (stereo not drawn)	u	-3.8	-5.8%	-2%	18%	0.7	0.9%
O=C(NCc1ccccn1)c1cc(-c2ccccc2)on1	10%	-3.0	-21%	13%	2%	-2.0	x
COc1ccc(-c2noc(CCC(=O)N3CCC(C)CC3)n2)cc1	16%	-0.4	-2.8%	-14%	3%	-0.9	5.8%[38.3 µM]
O=C(CSc1nc2ccccc2c(=O)n1CCCN1CCOCC1)Nc1cccc(S(=O)(=O)N2CCCCCC2)c1	-11%	-0.7	18µM*	-23%	-1%	-0.8	-1.6%
CCNC(=O)CC1C(=O)N(c2ccc(F)cc2)C(=O)N1CCc1sccc1C (stereo not drawn)	-55%[inhibitor]	-3.3	x	2%	12%	-1.0	-0.8%
O=C(NC(=S)N1CCN(C2CCCCC2)CC1)c1ccccc1	17%[15.4 µM]	-1.3	x	11%	-16%	-1.7	2.5%
Clc1ccc2oc(-c3ccccn3)nc2c1	-11%	-0.2	16µM*	9%	-11%	7.4	1.6%
COc1ccc(NC(=O)c2ccc([N+](=O)[O-])o2)cc1	-10%	9.5	x	-7%	6%	2.0	-2.0%
CCN(CC)S(=O)(=O)c1ccc(C(=O)OCn2c(SC)nnc(C)c2=O)cc1	-6%[15.4 µM]	6.9	0.8%	-9%	8%	9.4	-0.9%
CC(C)c1ccc(-c2nnn(Cc3nc4ccccc4s3)n2)cc1	23%	-1.2	-5.2%	-3%	7%	0.3	-0.9%
O=C(NNC(=O)c1ccc2ccccc2c1)c1ccc(Cl)c(Cl)c1	-87%[inhibitor]	-4.9	x	-2%	x	x	0.3%
COCCOC(=O)c1c(C)oc2cc(Br)c(OCC(N)=O)cc12	3%[15.4 µM]	-4.3	x	-27%	6%	5.5	-0.4%
O=C(C=Cc1ccc2c(c1)OCO2)c1ccccc1	-31%[inhibitor]	1.2	x	-4%	x	x	12%
Cc1ccc(OCC(=O)N2CCN(S(=O)(=O)c3ccc(Cl)cc3)CC2)c([N+](=O)[O-])n1	-28%	0.7	-7.5%	-5%	-2%	1.0	2.1%
CN(C)c1ccc(/C=N/n2c(-c3ccccc3Br)n[nH]c2=S)cc1	5%	-1.8	x	u	56µM*	6.2	0.9%
Cc1cc(C)cc(NC(=O)C(c2ccccc2)N2CCCC2)c1 (stereo not drawn)	2%	-2.4	-1.3%	14%	0%	5.4	0.1%
O=c1[nH]c(-c2ccc(F)cc2)nc2c1sc(=S)n2-c1ccccc1	0%	-3.1	x	u	-11%	-1.8	2.6%
O=C(Nc1cccnc1)c1ccc(Oc2ccccc2)cc1	-3%	-1.7	-3.9%	-10%	19%	1.5	-2.7%
COc1ccc(NC(=O)C2(C)Cc3c(-c4ccc(NC(C)=O)cc4)ccnc3O2)cc1OC (stereo not drawn)	x	7.6	-5.4%	x	x	x	-1.0%
O=S(=O)(c1ccccc1)N1CCN(c2ccnc3cc(Cl)ccc23)CC1	-5%[15.4 µM]	13	x	-73%	-7%	4.4	0.3%
COc1ccc(CN2C[C@@H](CO)O[C@@H](n3cnc4c(N5CCCC5)ncnc43)C2)cc1	x	-3.3	1.7%	x	x	x	0.5%
Clc1ccc(CNC23CN4CN(CN(C4)C2)C3)c(Cl)c1	-16%	-6.5	-9.2%	11%	4%	3.2	0.4%
CC(=O)c1c(COC(=O)c2ccccc2)nc2ccccc2[n+]1[O-]	-6%	1.1	0.1%	u	-9%	-0.8	-5.7%[38.3 µM]
CC(=O)Nc1c(Cl)cc2c(c1Cl)Cc1cc(C#N)ccc1-2	7%	2.0	1.0%	-6%	x	x	-3.3%
CN(C)Cc1cc(C(C)(C)c2cc(CN(C)C)c(O)c(CN(C)C)c2)cc(CN(C)C)c1O	-2%	-4.7	-0.8%	-1%	-3%	-0.9	-1.7%
CN(Cc1cccc(Cl)c1)C(=O)C1CCN(C(=O)Nc2ccccc2)CC1	11%	-3.5	-2.9%	2%	x	x	-1.5%
c1coc(-c2nc3c([nH]2)CCc2nonc2-3)c1	-25%	-1.0	-8.4%	7%	-3%	-0.7	x
CCN1C(=O)c2cccc3c(S(=O)(=O)NCc4ccco4)ccc1c23	-4%	3.2	-9.3%	3%	-6%	0.3	u
O=S(=O)(NC1=NCCCCC1)c1ccc(Cl)cc1	10%[15.4 µM]	-1.6	x	5%	18%	0.7	3.6%
CC(C)NC(=O)CN(C)S(=O)(=O)c1ccc(F)cc1	u	3.3	-2.0%	-3%	11%	1.0	1.3%
COc1ccc(/C=C/C(=O)NCCc2ccc(OC)c(OC)c2)cc1	14%[15.4 µM]	-1.0	-0.3%	-17%	10%	3.4	-0.9%
O=C(Nc1ccccc1C(=O)Nc1ccccc1C(=O)O)c1ccccc1	9%[15.4 µM]	-13	-0.6%	u	-4%	6.0	0.0%
O=C(COC(=O)C1CC1)Nc1ccc2[nH]c(=O)[nH]c2c1	-13%	-0.8	-3.1%	-5%	26%	-0.6	0.7%
CCCCNC(=O)CCC(=O)N1CCN(C(c2ccccc2)c2ccccc2)CC1	-24%	3.1	-0.2%	-19%	20%	5.0	-0.3%
CCN(Cc1ccccc1)C(=O)Cn1c(=O)oc2ccccc21	-4%[15.4 µM]	-0.1	x	x	19%	-7.8	-0.3%
CCN(CC)C(=O)CSc1nc(N)c(C#N)c(-c2cccs2)c1C#N	6%	-3.5	u	7%	5%	-1.6	u
COCCNc1nc2c(c(=O)n(C)c(=O)n2C)n1Cc1cccc(C(F)(F)F)c1	14%	-5.0	0.4%	2%	-7%	-0.4	-0.8%
OCc1nc2ccccc2n1CC(O)COc1ccccc1 (stereo not drawn)	-1%	-0.4	2.1%	9%	12%	0.0	-0.9%
COc1ccc(-c2cc(-c3cccnc3)c(C#N)c(N)n2)cc1	42%	-1.3	x	-12%	21%	-0.1	u
Cc1ccc(N(CC(=O)N/N=C/c2cccnc2)S(=O)(=O)c2ccccc2)cc1	0%	-4.1	0.4%	46%[activator]	-8%	-3.5	-1.3%
O=C(c1ccco1)N1CCN(C(=S)Nc2ccccc2C(F)(F)F)CC1	0%	-1.3	-5.7%	8%	7%	x	-1.6%
CC(C)Sc1nc2c(c(=O)[nH]c(=O)n2C)n1CC(O)COc1ccccc1 (stereo not drawn)	1%[15.4 µM]	0.7	x	-11%	u	-6.9	-1.3%
O=C(CSc1nnc(CNc2ccc(F)cc2)n1Cc1ccco1)N1CCCC1	0%	2.6	-5.1%	-2%	-1%	-2.2	-0.1%[38.3 µM]
COc1ccc(CNC(=O)Cn2c(=O)n(CCC(=O)N3CCCCC3)c(=O)c3sccc32)cc1	u	-1.2	-0.6%	9%	9%	-4.6	1.4%
CCCCCc1nnc(N)s1	-38%[inhibitor]	0.8	-2.8%	6%	3%	-0.7	-2.9%[38.3 µM]
CCC(c1nnnn1Cc1ccc2c(c1)OCO2)N1CCN(c2ccc(OC)cc2)CC1 (stereo not drawn)	-26%	-3.3	-9.2%	u	0%	-0.6	-0.2%
CCN(CC)c1ccc(/C=N/n2c(=S)[nH]nc(C)c2=O)cc1	18%	-0.6	-6.8%	-15%	79µM*	0.2	2.3%
Cc1cc(F)ccc1NC(=O)C1CCN(S(=O)(=O)c2ccc3c(c2)CCCC(=O)N3)CC1	-3%	2.8	0.2%	4%	-1%	x	1.0%&5.8%
CN(C)CCc1c[nH]c2ccc(Cn3cncn3)cc12	x	x	x	x	10%	-6.7	-0.5%
Cc1ccc(S(=O)(=O)Nc2cc(S(=O)(=O)N3CCOCC3)ccc2NCC2CCCO2)cc1 (stereo not drawn)	24%	-1.5	-20%	1%	x	x	0.9%
